Source: PubChem BioAssay (National Center for Advancing Translational Sciences (NCATS))
Menin MLL FP FL: qHTS Assay for Inhibitors Targeting the Menin-MLL Interaction in MLL Related Leukemias: Competition With Fluorescein Labeled MLL-derived Peptide. Fluorescence polarization, fluorescein-MLL peptide displacement from menin. FP activity change, % at 61.4 µM. 290,000 tested, under 10 active. AID 1766, 2009; inconclusive = falling polarisation curve, or a change in total fluorescence; inactive = total fluorescence flat and polarisation flat or rising; no compound was filed as active; the % refers to the polarisation; negative = inhibition;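 note: % of control where 0% means no effect; inhibitors lower the polarisation; unlabelled MLL peptide was the positive control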
gsp antagonist: qHTS for Antagonists of gsp, the Etiologic Mutation Responsible for Fibrous Dysplasia/McCune-Albright Syndrome: qHTS | gsp-mutant cells, cAMP HTRF, 30 min; control for the full effect not named in the record | Potency, µM (highest dose often 76.9 µM), without a hit: at the top dose activity change, negative = inhibition, usual class: inhibitors | 340,000 compounds, 0.4% hits; active = falling curve of any shape with a large fitted effect; inconclusive = falling curve, mostly with a smaller effect; inactive = flat or rising curve; cell line not stated here;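 note: intracellular cAMP measured with PDE inhibitor Ro 20-1724 present during compound exposure; potency is the fitted concentration of half-maximal effect; % is set by controls: 0 for no effect and ±100 for the full control effect; nearly all actives have a fitted effect of over 65% in size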
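HTRF cAMP measurement after 30 min RT detection following 30 min, 37C compound treatment alongside […] (added as 300 uM solution) in G418-selected cells seeded at 2000/well and grown 16–24 h.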
gsp agonist: qHTS for Agonist of gsp, the Etiologic Mutation Responsible for Fibrous Dysplasia/McCune-Albright Syndrome: qHTS; 340,000 compounds, 0.13% hits; gsp mutant cells, cAMP HTRF, 30 min; control for the full effect not named in the record; Potency, µM (doses to about 76.9 µM), inactives show top-dose activation (cAMP increase), most hits filed as activators; active = well fitted activation curve with a large enough effect; inconclusive = small, poorly fitted or top-dose-only effect, or another doubt; inactive = no such curve, though single readings can be large or run the other way; cell line not stated here;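 note: phosphodiesterase inhibitor Ro 20-1724 added with compounds to block cAMP breakdown; potency is the fitted concentration of half-maximal effect; nearly all actives have a fitted effect of over 60% in size; about a fifth of the inactives were tested at one dose only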
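Cells in DMEM/10% FBS with G418 were pretreated with compounds in DMSO plus […] (300 uM stock) for 30 min at 37C. cAMP was measured by HTRF (cAMP-d2 plus anti-cAMP antibody-K) after 30 min at room temperature.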
TRPML1 inh: qHTS for Inhibitors of the Human Mucolipin Transient Receptor Potential 1 (TRPML1); TRPML1-inducible cells, Ca2+ dye fluorescence, FDSS; active compounds read low; inhibition of EC80 agonist-evoked calcium signal; Mucolipin-1 (Homo sapiens), Q9GZU1; 390,000 compounds, 0.02% hits; activity change, negative = inhibition, % (test concentration not listed); in the data active means activity change below about -50%; inconclusive means about -30% to -50%; inactive means above about -30%;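 note: stimulus is agonist 54-4 at its EC80 concentration; % is set by controls: 0 for no effect and ±100 for the full control effect; compound concentration not given in the record; the text of the record puts the active cut at -80%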
Target sequence (Q9GZU1 whole entry, looked up): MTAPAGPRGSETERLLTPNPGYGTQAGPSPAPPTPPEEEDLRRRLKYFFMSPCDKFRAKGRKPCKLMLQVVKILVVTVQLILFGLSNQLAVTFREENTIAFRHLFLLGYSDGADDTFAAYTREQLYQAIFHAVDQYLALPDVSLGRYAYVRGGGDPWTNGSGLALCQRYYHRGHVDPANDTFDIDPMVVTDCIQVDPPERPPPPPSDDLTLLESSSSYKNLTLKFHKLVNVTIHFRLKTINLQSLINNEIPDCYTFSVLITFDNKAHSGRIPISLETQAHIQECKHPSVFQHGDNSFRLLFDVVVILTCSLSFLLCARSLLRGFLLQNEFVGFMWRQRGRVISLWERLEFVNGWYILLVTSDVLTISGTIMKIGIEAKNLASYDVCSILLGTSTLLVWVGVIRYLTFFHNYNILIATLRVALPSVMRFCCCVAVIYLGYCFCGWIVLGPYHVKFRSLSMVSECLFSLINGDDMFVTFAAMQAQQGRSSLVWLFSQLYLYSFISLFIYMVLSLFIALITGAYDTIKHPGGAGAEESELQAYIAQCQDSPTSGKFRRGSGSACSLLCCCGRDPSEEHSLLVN
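TRPML1-DL cells, Tet-induced overnight (~16 h, 37 °C) at 1,500 cells/well, were loaded with Ca8 no-wash dye plus quencher for 45-90 min at room temperature. Compounds were pinned during FDSS kinetic reading; agonist 54-4 at EC80 (4 uM final) then added.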
TRPML1 agonist: qHTS for Agonists of the Human Mucolipin Transient Receptor Potential 1 (TRPML1). Mucolipin-1 (Homo sapiens), Q9GZU1. TRPML1-expressing cells, Ca2+ dye fluorescence, FDSS; host cell line not named in the record; reference of the full effect not given here. activation, % (concentration not given with the values). 410,000 compounds, 0.12% hits. AID 624414, 2012; in the data active = activation above about 50%; inconclusive = about 30% to 50%; inactive = below about 30%; note: 0% is about no effect; the text of the record puts the active cut at 80%
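In this qHTS format, compounds were pin-transferred onto Ca8-dye-loaded TRPML1-DL cells induced with Tet overnight, and intracellular Ca2+ fluorescence was recorded kinetically for 110 s after a 10 s baseline. A subsequent 4uM final 54-4 (EC80) addition followed by a second 110 s read served as the antagonist phase.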
ClpP mod: qHTS Assay for Activators of ClpP | ATP-dependent Clp protease proteolytic subunit (Bacillus subtilis (strain 168)), P80244 | purified B. subtilis ClpP, FRET peptide cleavage, 20 min | Potency, µM (highest dose often 57.5 µM), for inactives: at the highest dose activity change, negative = active | 340,000 compounds, 1.9% hits; active = well fitted falling curve with a large enough effect; inconclusive = small, poorly fitted or top-dose-only effect; inactive = no such curve, though single readings can be large or run the other way; note: potency is the fitted concentration of half-maximal effect; the source files actives as falling curves though it sought activators and does not explain the sign; nearly all actives have a fitted effect of over 65% in size; many hits overshoot -100%
Target sequence (P80244 whole entry, looked up): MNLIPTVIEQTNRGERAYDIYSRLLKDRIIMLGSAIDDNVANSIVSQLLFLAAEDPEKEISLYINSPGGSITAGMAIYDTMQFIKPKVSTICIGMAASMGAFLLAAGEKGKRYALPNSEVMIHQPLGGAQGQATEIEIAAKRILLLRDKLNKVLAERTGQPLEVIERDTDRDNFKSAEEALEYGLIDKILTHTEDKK
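Purified B. subtilis ClpP, 10 microg/mL final in Tris/HCl pH8 with KCl, BSA, glycerol and Tween-20, cleaved an Abz/nitrotyrosine-quenched decapeptide. Fluorescence (ex 320, em 430) was read at 0 and 20 min at room temperature. Delta was normalized to 5.8 microM ADEP and DMSO/no-enzyme controls.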
* hit, by the source's call; ? = inconclusive; · = not tested or not shown; [ ] = remark or other dose.

1	OCCOCCn1c2ccccc2c2ccccc21
2	O=C(CSc1nnc(CSc2nc3ccccc3s2)o1)NC1CCCCC1
3	Cc1ccc(C)c(N2CCN(C(=O)CCc3nc(-c4cccc(C(F)(F)F)c4)no3)CC2)c1
4	CCOC(=O)c1cc2c(=O)n3ccccc3nc2n(C)c1=NC(=O)c1cc2ccccc2o1
5	O=c1cnn([C@@H]2O[C@H](CO)[C@@H](O)[C@H]2O)c(=O)[nH]1
6	O=C(Cc1ccc(-n2c(=O)[nH]c3ccsc3c2=O)cc1)NCc1cccnc1

assay / compound	1	2	3	4	5	6
Menin MLL FP FL	-1.8	1.8	·	·	3.6	4.8
gsp antagonist	8.6%	-7.7%	-15.9%	·	-4.8%	32.5%[activator]
ClpP mod	-20.3%	2.8%	-4.4%	4.8%	-3.0%	-5.3%
TRPML1 inh	0.8	4.3	4.6	1.6	-4.0	-0.2
TRPML1 agonist	-0.8	1.1	0.5	-0.2	0.0	-0.7
gsp agonist	-3.6%	-13.8%	·	·	·	46.2%[15.4 µM]

7	CN(C)S(=O)(=O)c1cccc(NC(=O)COC(=O)/C=C/c2ccc(Br)o2)c1
8	CC1=C(C(=O)N2CCOCC2)CC(CC(=O)NC2CCCCC2)C(=O)N1Cc1ccc(C(C)(C)C)cc1 (centres undefined)
9	CCOc1cc(/C=C/C(=O)OCC(=O)NCc2ccco2)cc(Cl)c1OC
10	COc1cc(/C=C/c2ccc(O)cc2)cc(OC)c1
11	CCOc1ccc(N(C(=O)CNC(=O)c2ccco2)C(C(=O)NCC2CCCO2)c2ccccc2)cc1 (centres undefined)
12	O=C(CSC1CC(=O)N(CC(c2ccccc2)c2ccccc2)C1=O)Nc1ccc(Cl)cc1 (centres undefined)

assay / compound	7	8	9	10	11	12
Menin MLL FP FL	11.8	·	·	1.3	·	0.6
gsp antagonist	-18.7%	·	-8.7%	-2.6%	-9.7%	-15.2%
ClpP mod	-4.2%	0.7%	-27.3%	-27.8%	·	-1.4%
TRPML1 inh	·	19.2	2.0	·	17.2	-2.4
TRPML1 agonist	·	0.1	2.2	·	0.3	1.0
gsp agonist	18.9%	?	5.0%[15.4 µM]	·	2.5%[15.4 µM]	16.4%

13	CC(C)CN(C(=O)COc1ccc(Br)cc1C=O)C1CCS(=O)(=O)C1 (centres undefined)
14	CCCCN(C(=O)CNC(=O)c1cccs1)C(C(=O)NC1CCCCC1)c1cccnc1 (centres undefined)
15	O=C(NCCN1CCCC(O)C1)c1cc(COc2cccc(C(F)(F)F)c2)on1 (centres undefined)
16	CCC1CN(C(=O)Nc2cc(OC)cc(OC)c2)c2ccccc2S1 (centres undefined)
17	COC(=O)Cc1ccc(OC(=O)CCS(=O)(=O)c2ccc(C)cc2)cc1
18	COc1cccc(NC(=O)CN(C)C(=O)c2ccc3ccccc3c2)c1

assay / compound	13	14	15	16	17	18
Menin MLL FP FL	·	-5.3	·	·	·	3.6
gsp antagonist	9.1%	-3.9%	·	·	4.9%	-10.4%
ClpP mod	-5.0%	-0.1%	0.7%	-2.6%	-1.4%	-0.2%
TRPML1 inh	3.0	3.8	-8.4	4.1	?	2.1
TRPML1 agonist	1.0	-0.3	-1.1	1.0	-0.6	0.1
gsp agonist	-11.1%	0.0%	?	·	?	3.6%

19	Cc1ccccc1NS(=O)(=O)c1ccc(NC(=O)CSCc2ccc(Br)cc2)cc1
20	CC(C)N1CCC(N2CCN(Cc3ccc(Oc4ncccn4)cc3)CC2CCO)CC1 (centres undefined)
21	COc1ccc(N2CCN(S(=O)(=O)c3c(C)noc3/C=C/N(C)C)CC2)cc1
22	O=C1CC(c2c(F)cccc2Cl)C(n2cncn2)C(O)=C1C1NCCc2ccccc21 (centres undefined)
23	NCC12CC3CC(C1)CC(CN)(C3)C2
24	Cn1c(-c2ccccc2)cnc1NCc1ccccc1

assay / compound	19	20	21	22	23	24
Menin MLL FP FL	2.3	3.4	0.6	-1.2	-2.3	-0.3
gsp antagonist	5.3%	6.1%	-4.7%	-1.4%	5.3%	4.4%
ClpP mod	-0.9%	·	-0.6%	·	0.1%	-29.2%
TRPML1 inh	0.1	2.3	-4.7	6.4	5.5	0.8
TRPML1 agonist	0.5	0.9	-0.9	0.8	-1.0	-0.7
gsp agonist	-14.7%	-6.1%[15.4 µM]	28.2%	-2.6%[15.4 µM]	-34.2%[inhibitor]	-3.6%

25	COc1ccccc1-n1cnnc1SCC(=O)N1CC(=O)Nc2ccccc21
26	CCOC(=O)C(C)Oc1ccsc1C(=O)OC (centres undefined)
27	CC(/C=N/NC(=O)c1ccccc1F)c1ccccc1 (centres undefined)
28	CC(=O)Nc1ccc2c(c1)ncn2-c1ccc(C)cc1
29	O=S(=O)(NCC(c1ccco1)S(=O)(=O)c1cccs1)c1ccc(Cl)cc1 (centres undefined)
30	O=C(NC1CCCC1)c1ccc2c(c1)S(=O)(=O)c1ccccc1C2=O

assay / compound	25	26	27	28	29	30
Menin MLL FP FL	5.2	1.2	3.8	-0.3	·	·
gsp antagonist	7.0%	12.6%	2.1%	5.0%	·	15.0%
ClpP mod	-0.5%	-0.1%	0.5%	0.9%	0.0%	1.0%
TRPML1 inh	-21.4	-13.0	25.9	-9.9	3.2	-4.8
TRPML1 agonist	-0.4	0.5	0.3	-0.3	5.3	0.5
gsp agonist	-20.0%	-3.0%	?	-4.1%[15.4 µM]	·	·

31	CC(OC(=O)c1ccccc1OCc1ccc(Cl)cc1)C(N)=O (centres undefined)
32	Cc1cc(=O)[nH]c(SCC(=O)Nc2ccc(F)c([N+](=O)[O-])c2)n1
33	Cc1c(Cl)ccc2c(C(N)=O)cc(-c3ccccn3)nc12
34	COc1ccc(-c2nc(S(=O)(=O)c3ccc(Cl)cc3)c(N3CCCCCC3)o2)cc1
35	c1ccc(CNc2nc(-c3ccccn3)nc3ccccc23)cc1
36	COc1ccc(F)c(CN2CCC(CO)(Cc3cccc(C(F)(F)F)c3)CC2)c1

assay / compound	31	32	33	34	35	36
Menin MLL FP FL	5.6	-1.6	-7.8	·	-0.3	1.9
gsp antagonist	-31.9%	-5.7%	13.1%	·	15.2%	7.3%
ClpP mod	·	·	-2.2%	-7.2%	0.8%	·
TRPML1 inh	30.5	-19.0	32.6	-8.6	4.5	11.0
TRPML1 agonist	-0.3	0.2	1.1	-0.4	-0.2	-0.1
gsp agonist	5.2%[15.4 µM]	2.2%[15.4 µM]	6.3%[15.4 µM]	·	18.8%	-4.2%[15.4 µM]

37	C=CCCn1c(Cl)c(C#N)sc1=O
38	CCOc1ccc(NS(=O)(=O)c2ccc(NS(=O)(=O)c3cccs3)cc2)cc1
39	CCc1ccc(OC(=O)Cc2ccc(OC)c(S(=O)(=O)N3CCOCC3)c2)cc1
40	O=C(Cn1ncc2c(Cl)cccc21)NCc1cccc(Cl)c1

assay / compound	37	38	39	40
Menin MLL FP FL	10.9	3.4	·	·
gsp antagonist	·	-17.9%	-17.2%	·
ClpP mod	·	·	0.6%	-6.5%
TRPML1 inh	-9.0	-6.6	5.3	2.4
TRPML1 agonist	-0.1	-0.6	1.1	-0.7
gsp agonist	·	7.7%[15.4 µM]	-58.0%[inhibitor]	·

Molecules listed so far with an aryl methoxy group (nine):
9	CCOc1cc(/C=C/C(=O)OCC(=O)NCc2ccco2)cc(Cl)c1OC
10	COc1cc(/C=C/c2ccc(O)cc2)cc(OC)c1
16	CCC1CN(C(=O)Nc2cc(OC)cc(OC)c2)c2ccccc2S1 (centres undefined)
18	COc1cccc(NC(=O)CN(C)C(=O)c2ccc3ccccc3c2)c1
21	COc1ccc(N2CCN(S(=O)(=O)c3c(C)noc3/C=C/N(C)C)CC2)cc1
25	COc1ccccc1-n1cnnc1SCC(=O)N1CC(=O)Nc2ccccc21
34	COc1ccc(-c2nc(S(=O)(=O)c3ccc(Cl)cc3)c(N3CCCCCC3)o2)cc1
36	COc1ccc(F)c(CN2CCC(CO)(Cc3cccc(C(F)(F)F)c3)CC2)c1

assay / compound	9	10	16	18	21	25	34	36
Menin MLL FP FL	·	1.3	·	3.6	0.6	5.2	·	1.9
gsp antagonist	-8.7%	-2.6%	·	-10.4%	-4.7%	7.0%	·	7.3%
ClpP mod	-27.3%	-27.8%	-2.6%	-0.2%	-0.6%	-0.5%	-7.2%	·
TRPML1 inh	2.0	·	4.1	2.1	-4.7	-21.4	-8.6	11.0
TRPML1 agonist	2.2	·	1.0	0.1	-0.9	-0.4	-0.4	-0.1
gsp agonist	5.0%[15.4 µM]	·	·	3.6%	28.2%	-20.0%	·	-4.2%[15.4 µM]

39	CCc1ccc(OC(=O)Cc2ccc(OC)c(S(=O)(=O)N3CCOCC3)c2)cc1

assay / compound	39
Menin MLL FP FL	·
gsp antagonist	-17.2%
ClpP mod	0.6%
TRPML1 inh	5.3
TRPML1 agonist	1.1
gsp agonist	-58.0%[inhibitor]
